Screening results from PubChem BioAssay.
Mtb growth: M. tuberculosis H37Rv growth inhibitors, H37Rv strain (AID 1626); 220,000 tested, 0.95% active; inhibition, % at 10 µM; hits with a dose series show IC50 in µM; M. tuberculosis H37Rv growth inhibition; higher % means a stronger effect;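 active = confirmed in a dose series; inconclusive = inhibition above 80% but not taken into the dose series; inactive = below 80% or under 30% at every dose of the series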;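 also: bacteria incubated seven days before Alamar blue readout; 0% = bacteria only wells and 100% = bacteria with antibiotic wells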
YopH inh: inhibitors of Yersinia enterocolitica YopH tyrosine phosphatase. AID 898. fluorescence Ex485/Em525. inhibition, %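 (about 10 µM by stock and volumes)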. 140,000 tested, 0.16% active;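 active = inhibition of 50% or more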;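 also: controls were vehicle for no effect and minimum signal wells for full effect; inactives centre near -20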
Mtb betalactam: beta-lactam sensitization of Mtb H37Rv. M. tuberculosis H37Rv growth with meropenem, percent inhibition; hits of this screen are not shown here. inhibition, % at 25 µM. 330,000 tested, 0.27% active. AID 434955;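 active = about 74% or more and at least 40 points above the plate without the antibiotic, then above 30% in a dose series; inconclusive = first-round hits that could not be retested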;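 also: growth measured after seven days incubation then overnight dye step; 0% = bacteria only wells and 100% = bacteria with antibiotic; twin plates without the antibiotic show which effects depend on it; some results filed as inactive read as strong as hits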
RecA splice inh: blocks M. tuberculosis RecA intein splicing; cell-free RecA intein splicing, fluorescence; inhibition, %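 (about 9 µM by stock and volumes)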; 290,000 tested, 0.75% active; in the data active = inhibition above about 30%; inconclusive = no clear call, values can overlap the other calls;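 also: 0% = vehicle wells and 100% = reference inhibitor control wells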
Target sequence (P9WHJ3 whole entry, looked up, canonical isoform): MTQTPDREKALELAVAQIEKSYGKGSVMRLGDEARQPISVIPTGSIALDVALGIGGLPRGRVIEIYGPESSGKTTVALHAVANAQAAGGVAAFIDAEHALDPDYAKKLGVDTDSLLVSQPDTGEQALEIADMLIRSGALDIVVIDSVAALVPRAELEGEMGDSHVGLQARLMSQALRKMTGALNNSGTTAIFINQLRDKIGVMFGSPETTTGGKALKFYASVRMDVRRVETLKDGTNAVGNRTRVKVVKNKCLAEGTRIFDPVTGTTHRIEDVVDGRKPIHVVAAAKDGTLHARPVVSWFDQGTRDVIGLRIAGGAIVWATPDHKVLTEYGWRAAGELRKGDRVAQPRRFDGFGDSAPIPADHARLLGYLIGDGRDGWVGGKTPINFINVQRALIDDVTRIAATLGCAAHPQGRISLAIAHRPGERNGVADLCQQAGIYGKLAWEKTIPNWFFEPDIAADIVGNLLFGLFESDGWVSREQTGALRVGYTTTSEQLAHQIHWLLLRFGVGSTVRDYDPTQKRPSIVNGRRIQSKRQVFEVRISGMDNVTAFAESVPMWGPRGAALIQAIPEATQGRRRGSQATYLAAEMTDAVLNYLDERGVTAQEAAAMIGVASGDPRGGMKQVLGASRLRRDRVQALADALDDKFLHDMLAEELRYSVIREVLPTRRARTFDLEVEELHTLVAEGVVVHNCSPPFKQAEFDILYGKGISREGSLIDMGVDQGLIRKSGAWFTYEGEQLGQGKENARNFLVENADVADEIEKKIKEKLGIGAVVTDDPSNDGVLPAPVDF
Arbovirus anti: antivirals against arbovirus infection. arbovirus infection cell-based antiviral screen. 200,000 tested, 0.37% active. AID 1251. inhibition, % at 10 µM;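 active = inhibition from about 30%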;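 also: bluetongue infection of BSR cells; cell survival read as ATP light after 72 h; 0% = infected wells without compound and 100% = uninfected wells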
Arbovirus anti repeat: second read-out of Arbovirus anti, no call of its own (marks repeat the call); inhibition, %; measured here: 10K subset replicate screen; many hits read low in the repeat;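 first of two repeat runs on a subset; 0% = infected and 100% = uninfected wells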
* marks the source's active call; other numbers are inactive results; ? = inconclusive; / = not tested or not shown; & = joins results of further samples.

SMILES	Mtb growth	YopH inh	Mtb betalactam	RecA splice inh	Arbovirus anti	others
Cc1nc(N2CCN(C(=O)c3cccs3)CC2)c2c3c(sc2n1)CCCC3	/	/	55	16	/
O=[N+]([O-])c1ccc(N2CCNCC2)cc1NCC1CCCO1 (centres undefined)	-4%	-17	4	1.6	-2
N#Cc1cccc(NC(=O)COC(=O)C2CCC2)c1	/	/	-3	-0.9	/
COC(=O)c1sc(NC(=O)c2ccncc2)nc1C	/	/	4	0.0	/
O=C(CN1C(=O)CSc2cc(S(=O)(=O)N3CCCCCC3)ccc21)NCCc1ccccc1	4%	2	-4	7.1	2
CN(C)C(=O)CSc1nnc(Cc2ccc([N+](=O)[O-])cc2)o1	-2%	-27	9	-2.3	1
CCOc1ccccc1/C=C(/C#N)C(N)=O	8%	/	-1	-1.0	/
CCOc1ccc(NS(=O)(=O)c2ccc(OCC(=O)NCc3ccncc3)cc2)cc1	/	/	-18	-0.3	/
Cc1ccc(-c2nc(N/N=C/c3cccc([N+](=O)[O-])c3)c3ccccc3n2)cc1	3%	-11	-3	/	-28
CCC(Oc1ccccc1)C(=O)Nc1ccc(S(=O)(=O)Nc2cnc3ccccc3n2)cc1 (centres undefined)	-1%	-16	-9	8.0	-1
Cc1ccccc1NC(=O)C(C)c1cccc(C(=O)c2ccccc2)c1 (centres undefined)	-1%	-29	4	5.8	6
Cc1cc(NC(=O)c2oc3ccccc3c2C)ccc1-n1cnnn1	13%	-26	68	4.2	6
NCCCN1CCOCC1	-5%	-15	1	-3.2	14
O=C(/C=C/c1cccs1)Nc1sc2c(c1C(=O)O)CCCC2	/	/	7	0.4	/
Cc1c(NC(=O)CSc2ncccn2)c(=O)n(-c2ccccc2)n1C	2%	/	7	-0.3	5
COc1cc(/C=C2\CCCc3c2nc2ccccc2c3C(=O)O)cc([N+](=O)[O-])c1O	/	/	8	-2.5	/
Cn1c(-c2c(N)n(CCc3ccccc3)c3nc4ccccc4nc23)nc2ccccc21	1.8µM*	-12	100	-86	-16
COc1ccc(CC2c3cc(OC)c(OC)cc3CCN2C)cc1O (centres undefined)	-14%	-35	-1	-11	11
COc1ccccc1N1CCN(Cc2cc3c(cc2Br)OCCO3)CC1	/	/	-2	5.8	/
COC(=O)CN1C(=O)COc2ccc(S(=O)(=O)N3CCCCCC3)cc21	/	/	5	-3.9	/

Pulled by structure from the entries so far, 2 records:
SMILES	Mtb growth	YopH inh	Mtb betalactam	RecA splice inh	Arbovirus anti	others
Cc1nc(N2CCN(C(=O)c3cccs3)CC2)c2c3c(sc2n1)CCCC3	/	/	55	16	/
COC(=O)CN1C(=O)COc2ccc(S(=O)(=O)N3CCCCCC3)cc21	/	/	5	-3.9	/

More compounds follow.
SMILES	Mtb growth	YopH inh	Mtb betalactam	RecA splice inh	Arbovirus anti	others
C/C(=N/N=C1/NC(=O)CC(C(=O)Nc2ccccc2)S1)c1cccs1 (centres undefined)	11%	-28	1	2.7	15
O=C1CSC(c2cccc(F)c2)N1c1c(F)cccc1F (centres undefined)	/	/	6	1.1	/
Cc1ccc(C)n1-c1sccc1C(=O)O	-7%	10	/	0.9	-3
CCOC(=O)N1CCC(Nc2c(N3CCN(c4cccc(C(F)(F)F)c4)CC3)c(=O)c2=O)CC1	3%	-27	61	1.4	-4
CC(=O)C1=C(C)NC(SCC(N)=O)=C(C#N)C1c1sccc1C (centres undefined)	-7%	4	5	-2.7	7
COCc1cc(C)nc2sc(C(=O)OC(C)C)c(N)c12	2%	-26	0	-7.5	-7
O=C(c1ccc(N2CC3CC(C2)c2cccc(=O)n2C3)c([N+](=O)[O-])c1)N1CCCC1 (centres undefined)	-3%	/	-1	-0.9	11
CN(CCNC(=O)c1ccc(CS(=O)(=O)c2ccc(Br)cc2)o1)CCc1ccccc1	/	/	5	-3.4	/
COC(=O)c1[nH]c2cc(OC)ccc2c1NC(=O)c1ccc2c(c1)OCO2	1%	-6	10	0.3	1	Arbovirus anti repeat=-5
CCn1c(C)cc2c(c1=O)C(c1ccccc1)C(C(=O)OC)=C(N)O2 (centres undefined)	-9%	-8	0	-0.8	-4

Among those listed so far, 2 contain an aryl thioether with sulfur outside any ring.
SMILES	Mtb growth	YopH inh	Mtb betalactam	RecA splice inh	Arbovirus anti	others
CN(C)C(=O)CSc1nnc(Cc2ccc([N+](=O)[O-])cc2)o1	-2%	-27	9	-2.3	1
Cc1c(NC(=O)CSc2ncccn2)c(=O)n(-c2ccccc2)n1C	2%	/	7	-0.3	5

Next section.
SMILES	Mtb growth	YopH inh	Mtb betalactam	RecA splice inh	Arbovirus anti	others
C=CCOc1ccc(C2NC(=S)NC(c3ccccc3)=C2C(C)=O)cc1OC (centres undefined)	8%	/	5	3.4	20
Cc1ccc(C(=O)O)c(C(=O)Nc2nc(C)cs2)c1	4%	-43	-11	-0.4	3
COc1ccccc1CCNS(=O)(=O)CCNC(=O)c1ccccc1	/	/	5	0.5	/
O=C(CN1CCCC1=O)NCCc1ccccc1	0%	/	1	0.5	0
O=C1C=C(O)CC(c2ccco2)C1 (centres undefined)	11%	-27	-10	/	-4
CN(C)c1cccc2c(C=C(C#N)C#N)ccc(N(C)C)c12	-5%	-20	1	3.9	0
O=C(NCCc1ccccn1)c1ccc(S(=O)(=O)N2CCCCCC2)cc1	-7%	-42	0	-30	-5
Cn1nnnc1SCC(=O)N1CCCc2ccccc21	-9%	-27	3	0.3	-3
CCc1nc2ccccc2c(=O)n1NC(=O)c1c(O)c2ccccc2[nH]c1=O	-4%	-19	7	-2.7	-3
CCCC(=O)Nc1sc(C)c(-c2ccc(C(C)CC)cc2)c1C#N (centres undefined)	2%	-3	/	-0.9	8
CC(C)(C)c1ccc(NC(=O)CCNC(=O)c2ccco2)cc1	/	/	-8	1.6	/
Nc1ncc([N+](=O)[O-])c(Oc2ccccc2F)n1	/	/	-2	-0.6	/
CCOc1ccccc1N(C(=O)Nc1ccc(Cl)cc1)C1=NCCS1	4%	-7	2	1.9	0
COC(=O)c1ccccc1NC(=O)CN1CCN(Cc2ccccc2)CC1	/	/	8	-0.4	/
COc1ccc(-c2nc(CS(=O)(=O)CC(=O)NC3CCC(C)CC3)c(C)o2)cc1 (centres undefined)	/	/	3	0.5	/
COc1ccc(CNC(=O)c2cc(=O)c3cc(C)c(C)cc3o2)cc1	/	/	8	-1.2	/
COc1ccc(C(=O)Nc2ccc(Cn3ccnc3)cc2)cc1OC	/	/	5	-0.3	/
COc1cc(NS(=O)(=O)c2ccc(NC(=S)NC(=O)c3ccc(Br)cc3)cc2)ncn1	/	/	8	0.2	/
CC(=O)Nc1ccc(S(=O)(=O)N(C)CC(=O)OCC(=O)N2CC(C)OC(C)C2)cc1 (centres undefined)	/	/	9	2.2	/
Cc1cccc(CS(=O)(=O)Cc2ccc(C(=O)NCCc3ccccc3)o2)c1	/	/	-1	0.6	/
C/C(N)=C(/C#N)C(=O)CSc1nnnn1-c1ccc(C)cc1C	-5%	-47	-12	-0.1	0
O=C(CCNC(=O)c1ccccc1Cl)Nc1ccc2c(c1)OCO2	7%	-6	0	-1.6	-1
COc1ccccc1CC(=O)Nc1cccc2c1CCCC2	0%	-9	-5	-12	3
CC(=O)OC1(c2ccc(C)cc2)CN2CCC1c1ccccc12 (centres undefined)	-1%	-13	-12	-1.0	2
CCOC(=O)c1c[nH]c2c3c(ccc2c1=O)CCCC3	6%	-25	-12	1.8	-1
O=C(CN1C(=O)CSc2ccc(S(=O)(=O)N3CCOCC3)cc21)NCc1ccc(F)cc1	/	/	-3	0.7	/
Cc1ccc(C(=O)Nc2ccccc2-c2ccccc2)cc1S(=O)(=O)Nc1cccc(C)c1C	13%	-24	6	18	-23
O=C(CSc1ccc(Cl)cc1)c1ccco1	3%	-6	-3	1.8	-5
COCc1nn2c(N)c(C#N)cnc2c1-c1ccccc1	5%	-39	12	-1.4	-2
CN1CCN(CCCN2c3ccccc3Sc3ccc(Cl)cc32)CC1	80%&68%&-6%	-17	100&87	3.1	-43&-22
O=C1C(Br)=Cc2cccc3cccc1c23	?	/	98	70*	/
CCn1cnc2c([N+](=O)[O-])c(NS(=O)(=O)c3ccc(C)cc3)ccc21	/	/	-2	-1.7	/
CCN(c1ccccc1)S(=O)(=O)c1ccc(C(C(=O)OC)C(=O)OC)c([N+](=O)[O-])c1	-7%	/	-3	0.0	8
CC(C)OCCCNc1ccc(N2C(=O)CCCC2=O)cc1[N+](=O)[O-]	/	/	2	-4.4	/
CCCOc1cccc(C(=O)NCCCNC(=O)c2cccnc2)c1	/	/	-11	0.5	/
CCCCc1nnc(NC(=O)c2oc3ccccc3c2C)s1	/	/	6	3.8	/
COC(=O)C(C)Sc1nnc(Cc2cc(=O)[nH]c(=O)[nH]2)n1-c1ccc(OC)cc1 (centres undefined)	-11%	-17	5	/	5	Arbovirus anti repeat=6
CCOc1ccccc1-n1nnnc1SC(C)C(=O)OC (centres undefined)	2%	/	-4	0.1	3
CC(Oc1ccccc1)C(=O)Nc1ccc(C(N)=O)cc1 (centres undefined)	-9%	9	-8	-0.8	5
CC1CC(C)CN(CCCNC(=O)CC2Oc3ccccc3NC2=O)C1 (centres undefined)	-13%	-38	1	/	1
O=[N+]([O-])c1nn(-c2ccc3c(c2)OCCO3)n(O)c1=NCCC1=CCCCC1	5%	/	61	2.5	-24
Cc1nc(SCc2c(F)cccc2Cl)n[nH]1	-3%	6	-19	1.0	6
CCC1=Nc2cc(C(=O)NCCCOC(C)C)ccc2Sc2ccccc21	-1%	-31	0	-0.5	-8
O=C(O)CNS(=O)(=O)c1ccc(-c2ccccc2)cc1	-11%	-35	/	/	6
O=C(NCC1CCCO1)Nc1cccc(Cl)c1 (centres undefined)	-2%	-4	-2	0.6	8
COc1cccc(C(=O)N(Cc2ccc3c(c2)OCO3)Cc2nc3ccccc3c(=O)[nH]2)c1	8%	-31	-5	-1.3	3
Cc1ccc(S(=O)(=O)Nc2cccc(C(=O)NCC(c3ccccc3)N(C)C)c2)cc1F (centres undefined)	/	/	-12	0.2	/
O=C(CCNC(=O)Cn1ccc2ccccc2c1=O)NCCN1CCc2ccccc2C1	-2%	-14	-5	-2.2	5
CCc1nnc(NC(=O)CSc2nc3[nH]ncc3c(=O)[nH]2)s1	1%	/	1	1.7	-2
Cc1ccc(C(=O)Cn2nnc(-c3cccs3)n2)cc1	-6%	/	1	-1.6	/

Compounds above that contain a thiophene ring, fused or not:
SMILES	Mtb growth	YopH inh	Mtb betalactam	RecA splice inh	Arbovirus anti	others
Cc1nc(N2CCN(C(=O)c3cccs3)CC2)c2c3c(sc2n1)CCCC3	/	/	55	16	/
O=C(/C=C/c1cccs1)Nc1sc2c(c1C(=O)O)CCCC2	/	/	7	0.4	/
C/C(=N/N=C1/NC(=O)CC(C(=O)Nc2ccccc2)S1)c1cccs1 (centres undefined)	11%	-28	1	2.7	15
Cc1ccc(C)n1-c1sccc1C(=O)O	-7%	10	/	0.9	-3
CC(=O)C1=C(C)NC(SCC(N)=O)=C(C#N)C1c1sccc1C (centres undefined)	-7%	4	5	-2.7	7
COCc1cc(C)nc2sc(C(=O)OC(C)C)c(N)c12	2%	-26	0	-7.5	-7
CCCC(=O)Nc1sc(C)c(-c2ccc(C(C)CC)cc2)c1C#N (centres undefined)	2%	-3	/	-0.9	8
Cc1ccc(C(=O)Cn2nnc(-c3cccs3)n2)cc1	-6%	/	1	-1.6	/

Back to the main list, starting 4 compounds before the break.
SMILES	Mtb growth	YopH inh	Mtb betalactam	RecA splice inh	Arbovirus anti	others
Cc1ccc(S(=O)(=O)Nc2cccc(C(=O)NCC(c3ccccc3)N(C)C)c2)cc1F (centres undefined)	/	/	-12	0.2	/
O=C(CCNC(=O)Cn1ccc2ccccc2c1=O)NCCN1CCc2ccccc2C1	-2%	-14	-5	-2.2	5
CCc1nnc(NC(=O)CSc2nc3[nH]ncc3c(=O)[nH]2)s1	1%	/	1	1.7	-2
Cc1ccc(C(=O)Cn2nnc(-c3cccs3)n2)cc1	-6%	/	1	-1.6	/
Cn1cc(Cl)c(C(=O)NC2CCCC2)n1	-3%	-21	-6	-1.0	0	Arbovirus anti repeat=-4
CCN(CC)S(=O)(=O)c1cc(NC(=O)C(C)N2CCc3ccccc32)ccc1C (centres undefined)	3%	/	1	5.7	14
Oc1ccccc1N=Nc1nc(-c2ccccc2)c(-c2ccccc2)[nH]1	6%	-22	41	1.6	-33
COc1ccc(/C=C/C(=O)Nc2ccc(S(=O)(=O)Nc3onc(C)c3C)cc2)cc1OC	/	/	-2	-2.5	/
O=C(N/N=C/c1ccco1)c1cccc(S(=O)(=O)Nc2ccccc2Cl)c1	21%	-9	-1	1.3	-1
Cc1nn(S(=O)(=O)c2ccccc2)c(C)c1Sc1ccc([N+](=O)[O-])cc1	-2%	-35	0	4.3	7
C=CCC1S/C(=N/N=C/c2cccs2)NC1=O (centres undefined)	-1%	/	40	0.0	3

Some of the compounds tested, so the mix of outcomes need not match the whole.
